HNF4A DNA FP = change in binding of human HNF4 alpha to DNA | HNF4a-FITC DNA binding, fluorescence polarization, 1 h | activity change, % at 10 µM | hit rate 0.3% among 360,000; in the data active = activity change above about 30%, passing the limit was not always enough;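 also: controls were the assay level and a saturating level of protein; the project sought stronger binding though the title names inhibitors; some compounds called inactive have numbers as strong as hits; positive values seem to mean higher polarization but the record does not say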
LANA-H2B inh = blocks KSHV LANA binding to histone H2A/H2B | cell-free LANA-H2A/H2B peptide, fluorescence polarization | hit rate 0.6% among 320,000 | inhibition, % (no concentration beside the values) | AID 2629; in the data active = inhibition mostly above about 10%, no sharp cut-off; inactive = mostly below about 6.7%;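 also: stock transfer was 7.5 nL into about 10 µL; 0% = median of vehicle wells and 100% = median of positive control wells; one replicate is shown; the record names a cut of 25% in any replicate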
Target sequence (Q9QR71 whole entry, looked up): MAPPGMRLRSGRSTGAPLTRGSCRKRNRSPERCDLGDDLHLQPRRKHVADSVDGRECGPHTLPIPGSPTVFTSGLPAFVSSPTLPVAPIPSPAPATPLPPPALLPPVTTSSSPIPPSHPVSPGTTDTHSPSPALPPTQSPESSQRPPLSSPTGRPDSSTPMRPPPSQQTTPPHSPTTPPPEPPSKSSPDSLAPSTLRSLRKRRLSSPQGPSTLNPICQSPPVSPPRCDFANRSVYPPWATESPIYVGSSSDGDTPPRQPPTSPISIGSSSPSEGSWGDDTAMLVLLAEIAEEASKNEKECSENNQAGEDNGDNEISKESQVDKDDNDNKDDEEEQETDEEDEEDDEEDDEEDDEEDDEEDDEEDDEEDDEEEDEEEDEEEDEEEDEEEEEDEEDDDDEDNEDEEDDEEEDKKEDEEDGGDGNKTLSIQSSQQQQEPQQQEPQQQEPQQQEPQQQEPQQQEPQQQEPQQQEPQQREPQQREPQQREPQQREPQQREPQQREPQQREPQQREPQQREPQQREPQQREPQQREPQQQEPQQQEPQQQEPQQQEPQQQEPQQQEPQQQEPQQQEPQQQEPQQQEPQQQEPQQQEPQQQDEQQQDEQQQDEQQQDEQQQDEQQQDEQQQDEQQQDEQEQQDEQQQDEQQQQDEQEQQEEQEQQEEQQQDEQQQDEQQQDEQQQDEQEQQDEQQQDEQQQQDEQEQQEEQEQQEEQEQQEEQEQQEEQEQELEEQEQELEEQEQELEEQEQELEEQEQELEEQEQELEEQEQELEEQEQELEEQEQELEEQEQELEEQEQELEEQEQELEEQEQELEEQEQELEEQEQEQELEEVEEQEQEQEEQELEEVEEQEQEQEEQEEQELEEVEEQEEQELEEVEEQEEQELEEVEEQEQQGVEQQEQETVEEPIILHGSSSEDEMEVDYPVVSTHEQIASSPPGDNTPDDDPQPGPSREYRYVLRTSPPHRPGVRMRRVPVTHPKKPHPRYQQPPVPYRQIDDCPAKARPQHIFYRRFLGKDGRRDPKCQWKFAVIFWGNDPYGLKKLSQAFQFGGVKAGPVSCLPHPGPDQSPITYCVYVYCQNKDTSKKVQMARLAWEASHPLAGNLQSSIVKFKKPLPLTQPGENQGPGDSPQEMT
Ecoli growth = blocks Escherichia coli growth; hit rate 0.21% among 330,000; OD600, 23 h; stronger effect = lower value; AID 1053175; OD600 absorbance (no concentration beside the values);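 active = OD600 absorbance below the run mean of sample wells minus 3.6 SD, in any replicate, cut at about 0.56 in these data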;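 also: stock transfer was 300 nL into about 60 µL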
UCH37 DUB inh = inhibitors of human deubiquitinating enzyme UCH37; Q9Y5K5; purified proteasome/UCH37, Ub-AMC cleavage fluorescence; inhibition, % (no concentration beside the values); hit rate 0.33% among 330,000; AID 588478;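 active = mean of two replicates above 20%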;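 also: 0% = compound-free wells with enzyme and 100% = wells lacking proteasome; stock transfer was 100 nL into about 20 µL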
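assay system = human UCH37 enzyme supplied as purified proteasome complex | amount = proteasome at 0.15 nM in the dispensed enzyme solution | schedule = 30 min compound-proteasome preincubation then 25 min substrate reaction, room temperature | measured by = fluorescence, ex 355 nm, em 460 nm | benchmarks = no-proteasome wells (full inhibition) and compound-free wells (no inhibition)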
B2AR ag = activates human beta-2 adrenergic receptor causing internalization | P07550 | Am2.2-beta2AR cells, FAP receptor internalization, flow cytometry; reference of the scale not given here | response, % (no concentration beside the values) | hit rate 0.43% among 340,000;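 active = response above a set limit, near 3 SD of response in nonfluorescent compounds, cut at about 42% in these data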;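 also: stock transfer was 100 nL into about 11 µL; a reference agonist was the positive control; negative values mostly stem from fluorescent compounds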
Vif TR-FRET = HIV-1 Vif–A3G interaction blockers – biochemical, TR-FRET, GST-Vif 1-94, biotin-A3G peptide, dose response retest, primary screen (AID 1117319) | TR-FRET GST-Vif / biotin-A3G peptide binding; higher % means a stronger effect; test concentration not given here; strong numbers were not always called active | inhibition, %, or IC50 in µM where a hit was titrated | hit rate 0.57% among 260,000;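 active = above the screen mean plus three standard deviations and confirmed in dose response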;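 also: Vif residues 1-94 fused to GST binding biotinylated APOBEC3G peptide 110-148; 0% = full assay without inhibitor and 100% = GST in place of GST-Vif; retest series ran down from 100 µM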
A1 inh = inhibitors of the anti-apoptotic protein A1, read as caspase activation; MEF A1-2A-BIM cells, Caspase-Glo 3/7 luminescence, 3 h; percent of clofoctol response, vehicle zero; caspase activation, % (concentration not given with the values); hit rate 0.066% among 330,000; AID 2462;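 active = over half of replicate activation scores above 10%, or exactly half above 10 with the replicate mean above 10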;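 also: wells of about 30 µL received 50 nL stock; many hits fall short of the cut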
Starred values were filed as active, the others as inactive; . = not tested or not shown; & = joins results of further samples.

smiles	HNF4A DNA FP	LANA-H2B inh	Ecoli growth	UCH37 DUB inh	B2AR ag	Vif TR-FRET	A1 inh
O=C(COc1ccc(Cl)cc1)NNC(=O)c1ccc(=O)[nH]c1	1.3	7.2	0.73	5.3	-5	0%	-0.3
CS(=O)(=O)c1ccccc1C(=O)Nc1nc2ccccc2[nH]1	12	0.2	0.65	6.3	-1	.	-1.0
COc1ccc(CCC(=O)NNC(=O)c2cc(Cl)ccc2OC)cc1	-2.2	-0.3	0.67	3.3	-12	.	0.2
COc1ccccc1/C=C1\SC(=S)N(CC(=O)NC2CCS(=O)(=O)C2)C1=O (stereo not given)	-0.6	4.4	0.67	9.3	-4	.	0.8
CCCOc1ccc(C(=O)NNC(=S)NC(=O)c2ccccc2)cc1	-0.6	0.6	.	.	-5	.	0.8
CCCCN(C(=O)c1[nH]c(C)c(C(C)=O)c1C)c1c(N)n(CCCC)c(=O)[nH]c1=O	1.9	-1.9	0.71	6.8	-6	2%	0.5
CCOc1c2ccc(C(=O)NCCCCc3ccccc3)cc2nn1CC	2.6	6.5	0.61	-24	-3	-3%	0.4
Cc1cc(C(=O)CSc2nnc(-c3cccnc3)n2-c2ccccc2F)c(C)n1C	2.8	2.0	0.64	2.3	-7	28%&8%	-0.2
COCc1ccc([C@@H]2C[C@H]3CN(Cc4cccnc4)C(=O)[C@]34CCCN24)o1	7.7	-5.6	0.68	0.9	-4	3%	0.5
O=C(CCN1N=C(c2ccccc2)CCC1=O)NCCCN1CCOCC1	0.1	-4.3	0.7	-0.5	4	.	1.2
O=C(N/N=C/c1cccc(Cl)c1)C1CCCC1	-1.5	5.8	.	.	-10	-3%	0.3
CCCCNC(=O)CCn1c(=S)[nH]c2cc3c(cc2c1=O)OCO3	0.0	2.8	0.69	1.2	1	-6%	0.3
O=C(Cc1ccc(NC(=O)C2CCN(C(=O)C3CCC3)CC2)cc1)Nc1ccc(C(=O)N2CCOCC2)cc1	-3.1	.	0.7	0.3	-1	-9%	.
Cc1cccc(Nc2nc(N)nc(CCl)n2)c1	-1.4	-1.5	0.64	6.5	-6	18%	2.1
CS(=O)(=O)N(CC(=O)O)c1ccc(C23CC4CC(CC(C4)C2)C3)cc1	-1.9	0.9	0.69	1.0	6	.	1.1
COc1cc(/C=C/C(=O)OCC(=O)N2c3ccccc3CC2C)cc(OC)c1OC (stereo not given)	-0.6	-3.5	0.71	-11	-3	-11%	1.3
CCOC(=O)CSc1nnc(CNC(=O)c2ccc([N+](=O)[O-])cc2)n1C	-3.8	0.0	0.69	-0.8	5	-8%	1.2
COc1ccc(CNC(=O)C2CCN(S(=O)(=O)c3ccc4c(c3)N(C(C)=O)CCO4)CC2)cc1	-6.5	0.0	0.63	-0.7	-2	.	1.3
COCCNC(=O)COc1ccccc1Cl	0.6	-0.9	0.68	-0.4	4	11%	-0.1
CCOc1ccc(CSC(CC(=O)O)C(=O)O)cc1 (stereo not given)	-0.6	2.0	0.7	2.1	8	4%	0.2
O=C(NN=C1CCCCCCCCCCC1)c1ccncc1	1.1	4.5	0.7	3.3	-8	-1%	0.1
CCC/C=N/NC(=O)C1COc2ccccc2O1 (stereo not given)	1.2	5.2	.	.	3	10%	0.3
O=C(CN1C(=O)C2CCCCC2C1=O)Nc1ccccc1C(=O)O (stereo not given)	0.5	13	0.71	5.0	4	.	-0.2
COc1ccc(Cl)cc1Nc1nc(-c2sc(NC(=O)CC(C)C)nc2C)cs1	15	1.2	0.66	-2.1	9	-1%	-0.5
COc1ccc(S(N)(=O)=O)cc1C(=O)OCC(=O)N1c2ccccc2NC(=O)C1(C)C	-5.7	11	0.66	0.9	8	.	0.5
COC(=O)c1nn(Cc2ccccc2)c(=O)c2ccccc12	1.6	3.9	0.66	5.5	0	.	0.2
CC1=C(C)CC(C(=O)NCc2cccc(Cl)c2)C(C(=O)O)C1 (stereo not given)	1.4	-1.6	.	.	4	.	-0.8
COc1c2ccoc2c(OC(C)=O)c2oc(C)cc(=O)c12	1.4	2.9	0.62	3.2	-4	0%	0.2
CC(=O)n1c(-c2ccccc2)c(-c2ccccc2)n(C)c1=O	-0.9	-3.9	0.71	-14	5	.	0.6
CCCN(c1nc(C)cc(OC)n1)S(=O)(=O)c1ccccc1	-0.5	-0.7	0.72	2.3	5	4%	0.3
COc1ccc(/C=N/Nc2nc(C(=O)O)cs2)cc1	-9.5	2.3	.	.	0	31%	0.4
COc1ccc(-n2c(C)cc(/C=C3\SC(=O)NC3=O)c2C)cc1	-1.6	-5.3	0.7	4.0	25	3%	0.3
COc1ccc(-c2noc(CCC(=O)NCCN(C)Cc3ccccc3)n2)cc1	-1.0	0.5	0.74	1.3	-13	9%	-1.8
O=C(NCCc1ccccc1)C(=O)NCC1CCCN1S(=O)(=O)c1cccs1 (stereo not given)	-2.9	4.2	0.61	-1.0	-7	5%	0.4
Cc1ccc(NP(=O)(Nc2ccc(C)cc2)Nc2ccc(C)cc2)cc1	-2.1	-1.2	0.66	1.3	10	-4%	0.0
COc1ccc(N(CC(=O)NC2CCCC2)C(=O)Cn2nnc(-c3ccc(OC)c(OC)c3)n2)c(OC)c1	-2.1	1.0	0.67	-1.7	0	.	0.2
CC(=O)N1CCN(C(=S)Nc2cc(S(=O)(=O)N3CCOCC3)ccc2Cl)CC1	2.7	-0.5	0.64	-2.8	-5	-9%	0.1
Cc1nc2ccc([N+](=O)[O-])cc2c(=O)n1Cc1ccc([N+](=O)[O-])cc1	3.7	0.3	0.65	3.7	-2	.	0.1
COc1cc2nc(CN(C)Cc3ccc(OC)c(OC)c3OC)[nH]c(=O)c2cc1OC	3.3	1.4	0.67	2.2	4	.	0.2
Cc1ccc(Nc2nnc(SCC(O)=C(C#N)c3nc4ccccc4[nH]3)s2)c(C)c1	11	.	0.68	0.6	-35	3%	.
Cc1nc(NC(=O)CCN2C(=O)C3CC=CCC3C2=O)sc1C (stereo not given)	-1.3	3.5	0.72	5.0	-2	1%	1.5
COc1cccc(Cn2cc(C(=O)NCCN(C)C)nn2)c1	2.2	0.5	0.62	0.5	-3	-1%	0.8
COc1cc(OC)nc(Oc2ccc(NC(C)=O)cc2)n1	0.0	-4.3	0.69	3.1	-5	-13%	-0.2
COc1ccc2c(c1)-c1nc(N)sc1CC2	1.1	-6.2	0.61	-3.9	15	19%	0.9
CC(=O)Nc1ccc(SCC(=O)OCC(=O)NC(=O)NCCC(C)C)cc1	-3.4	-2.1	0.66	2.2	4	-2%	1.3
O=C(CSc1ccccc1)Nc1cc(Cl)ccc1Oc1ccccc1	-2.3	-2.9	0.7	4.2	1	.	-0.2
COc1ccc(Nc2nc(-c3ccccc3)nc3ccccc23)cc1S(=O)(=O)N1CCOCC1	1.9	3.0	0.72	-94	15	-2%	0.7
CCn1c(CSc2nnc(-c3ccc4c(c3)OCO4)o2)nc2cc(S(=O)(=O)N(C)C)ccc21	-1.9	-1.5	0.74	-10	-7	4%	-0.6
CCn1c(C(=O)N2CCC(C(=O)NCc3ccc4c(c3)OCO4)CC2)cc2sccc21	-1.1	.	0.71	-1.7	6	-10%	.
N#C/C(=C\c1c(Oc2ccccc2Cl)nc2ccccn2c1=O)C(=O)NC1CCS(=O)(=O)C1 (stereo not given)	-2.8	6.1	0.66	-53	4	.	-0.3
Cc1nc(Nc2ccc3c(c2)OCCO3)c2oc3ccccc3c2n1	0.8	0.9	0.67	-29	0	3%	0.4
O=C(NCC1CCCO1)c1nn2c(C(F)(F)F)cc(-c3ccco3)nc2c1Cl (stereo not given)	4.4	-16	0.69	-47	-10	.	0.1
COC(=O)c1c(C)[nH]c(C(=O)OC(C)C(=O)N2CCOCC2)c1C (stereo not given)	-45	2.1	0.74	2.9	-4	4%	-0.9
COc1ccc(C(=O)Cn2c(C(=O)/C=C/c3ccccc3)nc3ccccc32)cc1	-0.5	-3.9	0.75	6.3	18	-4%	0.0
CC(C(=O)O)n1cc(C#N)c(=O)[nH]c1=O (stereo not given)	4.1	.	0.68	4.4	-3	-11%	.
CCCn1c(SC(C)C(=O)NCC2CCCO2)nc2sc(CC)cc2c1=O (stereo not given)	-4.9	-1.2	0.65	0.5	-17	.	0.1
COc1cc(C=O)ccc1OCC(=O)Nc1cccc(S(=O)(=O)N(C)c2ccccc2)c1	2.3	2.4	0.7	0.3	7	-1%	0.4
CCc1ccc(N(CC)C(=O)c2cn(C)c(=O)c3ccccc23)cc1	-0.6	2.9	0.69	5.2	-2	-1%	3.8
COc1cccc(-n2c(SCC(=O)NC3CCS(=O)(=O)C3)nc3ccccc3c2=O)c1 (stereo not given)	-5.1	.	0.71	3.4	-3	-14%	.
CC1CCC2C(=O)N(c3ccc(C(=O)Oc4cccc5cccnc45)cc3)C(=O)C2C1 (stereo not given)	-0.2	-5.7	0.72	2.8	-4	20%	0.2

(more compounds)
smiles	HNF4A DNA FP	LANA-H2B inh	Ecoli growth	UCH37 DUB inh	B2AR ag	Vif TR-FRET	A1 inh
CCOc1c(Br)cc(CNc2ncn[nH]2)cc1OC	0.2	-3.9	0.75	-2.0	-1	1%	-1.4
CC(=O)c1ccc(OC(=O)/C=C/c2ccccc2)cc1	0.9	5.7	0.68	6.2	-6	2%	0.2
Cc1ccc(NC(=O)NCc2ccccn2)cc1	3.9	-2.6	0.68	0.3	0	13%	-0.5
Cn1c(SCC(=O)Nc2sccc2C#N)nnc1-c1ccccc1	3.2	1.1	.	-0.9	-12	0%	-0.7
Cc1ccccc1-n1ncc2c1CC(C)(C)CC2NC(=O)C1CCC1 (stereo not given)	0.2	0.9	0.69	1.0	-5	2%	-0.1
C=CCn1c(SC)nc2sc3c(c2c1=O)CCc1ccccc1-3	6.4	-5.7	0.7	4.4	12	.	-2.6
CN1CCN(C(=S)NC(=O)c2ccc(Cl)cc2)CC1	-4.8	.	0.68	2.2	0	9%	.
c1coc(CNc2nc3sc4c(c3c3ncnn23)CCCC4)c1	0.4	-1.6	0.76	3.4	-1	-2%	0.5

Screens from PubChem BioAssay.
